Screening data (PubChem)
KCNQ2 enhance: potentiators of rat KCNQ2 potassium channel; O88943; CHO-K1 KCNQ2, FluxOR thallium flux fluorescence; stronger effect = higher value; B-score at 10 µM; actives 0.54% (n = 310,000);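 active = fluorescence ratio B-score at least 3 SD of library B-scores, with initial fluorescence B-score within 3 SD, cut at about 5.3 in these data; same plate scores as AID 2156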;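 also: B-score of peak minus minimum over baseline fluorescence ratio after K+ and Tl+ stimulus; positive B-score means potentiation of KCNQ2 with more thallium influx and brighter signal; only the inactives scoring about 0 or higher are listed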
Target sequence (O88943 whole entry, looked up): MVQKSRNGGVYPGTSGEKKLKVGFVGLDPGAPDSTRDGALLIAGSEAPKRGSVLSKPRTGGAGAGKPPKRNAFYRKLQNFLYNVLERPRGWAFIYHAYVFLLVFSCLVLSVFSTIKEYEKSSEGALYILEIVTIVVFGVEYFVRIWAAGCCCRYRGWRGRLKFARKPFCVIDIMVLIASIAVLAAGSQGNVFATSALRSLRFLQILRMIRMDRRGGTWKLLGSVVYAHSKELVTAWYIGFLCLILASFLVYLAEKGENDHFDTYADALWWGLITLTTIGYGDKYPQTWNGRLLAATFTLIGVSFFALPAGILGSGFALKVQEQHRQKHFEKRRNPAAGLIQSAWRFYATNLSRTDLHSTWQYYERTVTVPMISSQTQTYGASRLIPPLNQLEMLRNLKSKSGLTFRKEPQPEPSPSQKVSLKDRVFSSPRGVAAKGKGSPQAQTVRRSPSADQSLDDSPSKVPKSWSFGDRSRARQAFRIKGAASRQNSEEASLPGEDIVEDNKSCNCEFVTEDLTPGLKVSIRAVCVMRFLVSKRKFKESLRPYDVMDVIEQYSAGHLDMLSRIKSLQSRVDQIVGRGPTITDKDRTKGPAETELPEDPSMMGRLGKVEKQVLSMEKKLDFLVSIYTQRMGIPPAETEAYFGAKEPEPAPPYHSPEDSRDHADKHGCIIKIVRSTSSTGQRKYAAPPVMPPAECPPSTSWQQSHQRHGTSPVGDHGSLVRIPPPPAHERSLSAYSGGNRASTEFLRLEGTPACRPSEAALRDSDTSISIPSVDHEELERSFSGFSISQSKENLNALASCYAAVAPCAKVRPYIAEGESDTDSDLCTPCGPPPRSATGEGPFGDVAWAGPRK
KCNQ2 enhance baseline: also measured in KCNQ2 enhance; calls as there; B-score; compound at 10 µM; measured here: initial fluorescence intensity artifact check;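 brightness before thallium and not channel activity; 0 = typical well and far values either way flag optical interference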
Active calls of the source: *. Not all compounds are listed, so the mix of outcomes need not match the whole.

SMILES	KCNQ2 enhance	KCNQ2 enhance baseline
Oc1ccc(/C=N/NC(=S)NCc2ccco2)cc1	1.6	0.39
O=C(Cn1cnc([N+](=O)[O-])n1)N/N=C/c1ccccc1O	0.07	-0.56
CC1(C)CC(=O)C2=C(C1)OC(N)=C(C#N)C2C1CC=CCC1 (centres undefined)	0.55	-0.9
O=C(Cn1c(=O)sc2ccccc21)NCCOc1ccccc1F	1.7	-0.24
COc1ccc(C)cc1NC(=O)C1CCN(S(=O)(=O)c2cccc3nonc23)CC1	2.6	-1
CC(Sc1ccccc1)C(=O)Nc1ccc(N2CCOCC2)cc1 (centres undefined)	2.7	-0.88
O=C(N/N=C\c1cccnc1)c1ccccc1O	0.93	0.63
COc1cccc(OC)c1C(=O)Nc1ccccc1NC(=O)c1c(OC)cccc1OC	0.06	-0.39
O=C(Nc1ccc(OC(F)(F)C(F)F)c(NC(=O)c2cccc(F)c2)c1)c1cccc(F)c1	1	0
CCNc1c2c(nc3ccccc13)CC(C)(C)CC2=O	0.64	-1

Entries of single compounds as entered above.
COc1cccc(OC)c1C(=O)Nc1ccccc1NC(=O)c1c(OC)cccc1OC is listed as KCNQ2 enhance: 0.06; KCNQ2 enhance baseline: -0.39
CC(Sc1ccccc1)C(=O)Nc1ccc(N2CCOCC2)cc1 (centres undefined) is listed as KCNQ2 enhance: 2.7; KCNQ2 enhance baseline: -0.88

(listing goes on)
SMILES	KCNQ2 enhance	KCNQ2 enhance baseline
COc1cccc(C(=O)Nn2c(C)nnc2-n2nc(C)cc2C)c1	1	-0.04
N#C/C(=C\c1ccc(O)c(Br)c1)C(=O)NCc1ccccc1	0.55	-1.1
CCC1(c2ccc(F)cc2)NC(=O)N(CC(=O)Nc2ccc(-c3nc4ccc(C)cc4s3)cc2)C1=O (centres undefined)	1	0.76
COc1ccc(-c2ocnc2C(=O)NCc2nn(-c3ccccc3)nc2C)cc1	1.9	-1
c1ccc2c(c1)ncn2Cc1nnc2sc(-c3ccncc3)nn12	0.49	-0.19
Cc1cc(C)nc(NC(=O)Nc2ccc3c(c2)OCO3)c1	0.04	-0.09
Cc1ccc(/C=C/C(=O)Nc2ccc(S(=O)(=O)Nc3ncccn3)cc2)cc1	0.81	0.87
O=C1c2ccccc2-c2cccc(NS(=O)(=O)c3ccc(C(F)(F)F)cc3)c21	0.91	-0.38
COc1ccc(CCNC(=O)c2sc3nc4n(c(=O)c3c2C)CCC4)cc1	1.4	0.76
O=C1c2ccccc2C(=O)N1c1ccc(Cl)cc1	0.37	-1.3
COc1ccc(C)cc1Nc1cc(C)nc2ncnn12	0.05	-2.2
Cc1noc(C)c1COc1ccc(C(=O)OCC(=O)Nc2cccc(S(=O)(=O)N3CCOCC3)c2)cc1	1.4	-2.4
Cc1cccc(NC(=O)C[n+]2cccc(C)c2)c1	1.3	-0.33
CS(=O)(=O)c1nc(-c2ccccc2)c(-c2ccccc2)[nH]1	0.43	-0.12
O=C(Nc1ccc(N2CCCC(O)C2)cc1)c1snc2c(=O)[nH]cnc12 (centres undefined)	0.25	0.76
O=C(Cc1n[nH]c(=O)[nH]c1=O)N/N=C/c1cccc(O)c1	1.2	-0.01
Cc1ccc2cc(COC(=O)C3CCCO3)c(=O)[nH]c2c1 (centres undefined)	1	-0.37
Cc1ccc2oc(C(=O)NCC3CCOCC3)c(C)c2c1	0.94	0.83
Nc1scc[n+]1Cc1cccc2cccnc12	0.14	-1.5
CC(=O)Nc1ccc(NC(=O)CSc2nnc(-c3cc(C)[nH]n3)n2N)cc1	0.19	0.85
COc1cccc(C(=O)NNC2OC(CO)C(O)C2O)c1 (centres undefined)	0.69	1.3
O=C(N/N=C/c1ccc(Br)s1)c1cccnc1	0.29	2.6
Cc1ccc(CN2CCC(CNC(=O)Nc3ccccc3F)CC2)cc1	1.4	1.6
C/C(=N\NC(=O)CSc1nc2ccccc2o1)c1cccc(O)c1	0.06	0.07
C/C(=N\Nc1cccc(C(=O)O)c1)c1cc2ccccc2o1	0.15	2.1
CC(CC(=O)Nc1ccccc1)NCCCN1CCCC1=O (centres undefined)	0.07	0.42
Cc1cc(C)cc(NC(=O)C2CCCN2C(=O)NC2CCCCC2)c1 (centres undefined)	0.24	0.03
COC(=O)COc1ccc2c(=O)c(-c3ccccc3)coc2c1	0.8	-0.83
COc1ccc(NC(=O)CSc2nnc(C3CC3)n2N)cc1	0.69	1.4
NS(=O)(=O)c1cccc(NC(=O)CC23CC4CC(C2)CC(CC(=O)Nc2cccc(S(N)(=O)=O)c2)(C4)C3)c1	1.7	0.26
CCOC(=O)CCC(=O)Nc1ccc([N+](=O)[O-])cc1C	0.17	0.06
Cc1cc2[nH]c(=O)c(=O)[nH]c2cc1S(=O)(=O)N1CCN(c2ccccc2)CC1	1.3	-0.61
CC(=O)c1ccc(OCC(=O)Nc2c(C)nn(-c3ccccc3)c2C)cc1	0.34	0.87
c1ccc2c(c1)C(=NCC1CCCO1)NC2=NCC1CCCO1 (centres undefined)	0.03	-0.57
O=C(OCCOc1ccccc1Cl)c1ccc(-n2cnnn2)cc1	0.82	-0.27
Cc1oc2ccccc2c1CC(=O)NCCCN(C)C	0.78	0
O=C(NCCC1=CCCCC1)C(=O)NCCc1ccc(Cl)cc1	0.76	0.19
O=C(c1ccc(C#Cc2ccccc2)o1)N1CCN(c2ccccn2)CC1	0.79	-0.11
COC(=O)C1=CN(CCCN2CCCC2=O)C=C(C(=O)OC)C1c1cccs1	0.84	1.4
CN(C)CC/C=C1/c2ccccc2COc2ccccc21	0.21	2.7

Rewritten with values under each structure: entries from further up.
Order of values – KCNQ2 enhance | KCNQ2 enhance baseline
- O=C(Cn1cnc([N+](=O)[O-])n1)N/N=C/c1ccccc1O
→ 0.07 | -0.56
- CC1(C)CC(=O)C2=C(C1)OC(N)=C(C#N)C2C1CC=CCC1 (centres undefined)
→ 0.55 | -0.9
- O=C(Cn1c(=O)sc2ccccc21)NCCOc1ccccc1F
→ 1.7 | -0.24
- COc1ccc(C)cc1NC(=O)C1CCN(S(=O)(=O)c2cccc3nonc23)CC1
→ 2.6 | -1
- CC(Sc1ccccc1)C(=O)Nc1ccc(N2CCOCC2)cc1 (centres undefined)
→ 2.7 | -0.88

Following part.
SMILES	KCNQ2 enhance	KCNQ2 enhance baseline
N#Cc1cccc(NC(=O)CCNC(=O)c2ccccc2Cl)c1	0.53	-0.63
COc1ccc(Cl)cc1Nc1nc(C)cc(=O)[nH]1	1	0.87
COCCN(C(=O)COC(=O)/C=C/c1ccc(OC)c(OC)c1)c1c(N)n(Cc2ccccc2)c(=O)[nH]c1=O	0.53	-0.56
COc1ccc(C(=O)CSc2nnc(CNc3nc(-c4ccccc4)cs3)n2C)cc1	2	-0.05
Cc1ccc(-n2cnc3cc(NCc4cccs4)ccc32)cc1	0.89	-0.12
CCOc1ccc(C(C(=O)NCC2CCCO2)N(C(=O)c2snc(C(N)=O)c2N)c2ccccc2F)cc1 (centres undefined)	1.2	-0.68
COCC1CCN(C(=O)c2cc(COc3ccc4c(c3)CCCC4)on2)C1 (centres undefined)	0.7	-0.07
Cc1cccc(N(Cc2cc3ccccc3[nH]c2=O)S(=O)(=O)c2ccccc2)c1	0.5	-1.6
Cc1cccc(-n2ncc3c(NCCCO)ncnc32)c1	1.5	2.8
Cc1ccc(/C=C/C(=O)NCC2COc3ccccc3O2)o1 (centres undefined)	0.18	0.25
Cc1nnc(SCC(=O)NC(=O)NCc2ccco2)n1Cc1ccccc1	1.8	-1
Cc1ncoc1C(=O)N1CCCC(C(=O)c2ccc(Oc3ccccc3)cc2)C1 (centres undefined)	0.23	0
O=C(CN1CCOCC1)Nc1nc2ccc([N+](=O)[O-])cc2s1	2.3	-1.2
O=C(CN1CCN(S(=O)(=O)c2ccc3ccccc3c2)CC1)Nc1ccc2c(c1)CCC2	0.23	-1
COc1ccc(/C=N/NC(=O)c2ccccc2O)cc1Cn1nnc2ccccc21	0.34	1.1
N#CC1=C(N)N2C(=C(C#N)C13CCCC3)Nc1ccccc12	0.13	-0.02
CCN(CC(=O)Nc1cccc(OC)c1)C(=O)c1cnc(Cl)c(Cl)c1	0.08	-0.12
O=C(c1ccc(Cl)cc1)N1CCN(c2cc(=O)[nH]nc2-c2ccccc2)CC1	1.1	0.1
CC1C(=O)N2CCCc3cc(NC(=O)c4ccccc4F)cc1c32 (centres undefined)	0.42	0.04
O=C(Nc1ccc(OC(F)F)cc1)c1ncc(Cl)c(Cl)c1Cl	0.07	-0.19

4 of the entries above in order of their number in KCNQ2 enhance, low to high:
SMILES	KCNQ2 enhance	KCNQ2 enhance baseline
O=C(Nc1ccc(OC(F)F)cc1)c1ncc(Cl)c(Cl)c1Cl	0.07	-0.19
Cc1ncoc1C(=O)N1CCCC(C(=O)c2ccc(Oc3ccccc3)cc2)C1 (centres undefined)	0.23	0
COc1ccc(/C=N/NC(=O)c2ccccc2O)cc1Cn1nnc2ccccc21	0.34	1.1
O=C(c1ccc(Cl)cc1)N1CCN(c2cc(=O)[nH]nc2-c2ccccc2)CC1	1.1	0.1

New compounds follow:
SMILES	KCNQ2 enhance	KCNQ2 enhance baseline
CC(=O)c1c(C)[nH]c(C(=O)OCc2ccccc2)c1C	0.77	0.91
CNc1c([N+](=O)[O-])cnn1-c1ccc(Cl)cc1	4.4	-2.1
CCn1nc(NC(=O)C(C)(C)C)c2cc3cccc(C)c3nc21	8.5*	0.88*
O=C(COc1nsnc1N1CCOCC1)Nc1ccc(Br)cc1	0.46	-0.21
COC(CNC(=O)c1cc(C(=O)c2c(-c3c(Cl)cccc3Cl)noc2C)c[nH]1)OC	0.11	1.4
Cc1cccc(N2C(=O)CC(N3CCN(Cc4ccc5c(c4)OCO5)CC3)C2=O)c1 (centres undefined)	0.06	-0.48
CCOC(=O)COc1nc(-c2ccc(C)cc2)cc(-c2ccco2)c1C#N	0.41	0.9
COC(=O)N/N=C/c1cccc(OCCSc2ccc(Cl)cc2)c1	0.53	2
O=c1[nH]c2ccc(S(=O)(=O)N3CCN(Cc4ccccc4)CC3)cc2[nH]c1=O	0.82	-1.4
COC(=O)c1[nH]c2ccc(C)cc2c1NC(=O)CCN1CCN(C2CCCCC2)CC1	1.4	0.04
O=c1[nH]c2cccnc2c2ccsc12	0.19	-1.2
CCOC(=O)CC(=O)N/N=C/c1c(N)n(C)c(=O)n(C)c1=O	0.14	0.65
Cc1cc(C)c(C)c(S(=O)(=O)N2C(=S)NC(=O)C2C(C)C)c1C (centres undefined)	0.26	-1.9
CC(C)(C)NC(=O)c1ccc2c(c1)N(CC(=O)N1CCCC1)C(=O)C(C)(C)O2	0.49	-1.3
CC1(C)Cc2c(sc(/N=C/N3CCCC3)c2C#N)C(C)(C)N1	0.71	0.06
CCCCCCn1c(N2CCN(c3ccccc3)CC2)nc2c1c(=O)[nH]c(=O)n2C	0.13	0.93
CCC(C)NS(=O)(=O)c1ccc(OCC(=O)NCc2ccccn2)cc1 (centres undefined)	2.7	-0.42
O=C(COc1ccc2ccccc2c1)NNC(=O)Cc1ccccc1	0.73	-0.37
CCCNC(=O)C1CC(c2ccccc2[N+](=O)[O-])=NO1 (centres undefined)	0.67	0.67
CCCN(CC(=O)Nc1ccccc1C)C(=O)c1cc(=O)[nH]c2ccccc12	0.57	-0.03
COc1cc2c(cc1OC)CN(C(=O)CCN1C(=O)C3CCCCC3C1=O)CC2 (centres undefined)	0.73	0.58
O=C(NCc1ccco1)c1ccc(COc2ccccc2[N+](=O)[O-])o1	1.1	-0.02
C/[N+]([O-])=C\C1C(=O)CCCC1=O	1.1	-1
COC(=O)C1C(C(C)C)N(c2ccccc2)OC1(C)O (centres undefined)	0.58	-1.1
CCS(=O)(=O)N1CCC(C(=O)Nc2cccc(C(C)=O)c2)CC1	0.93	-0.09
Cc1ccccc1CNc1ncnc2cc(Cl)ccc12	1.3	-0.15
Cc1cccn2c(=O)c3cc(C(=O)O)n(C)c3nc12	0.54	0.36
COc1ccc(CNC(=O)N[C@H](C(=O)O)C(C)C)cc1OC	1.1	0.19
O=C(NCC1COc2ccccc2O1)c1ccc(-n2cncn2)c([N+](=O)[O-])c1 (centres undefined)	1.8	0.01
CCN(CC)S(=O)(=O)c1ccc(C2CNC(=O)C2)cc1 (centres undefined)	0.73	-1.7
CN(c1ccccc1)S(=O)(=O)c1cccc(C(=O)OCC(=O)NCc2ccco2)c1	1.3	-0.08
CCn1c(SCC(=O)N2CCc3ccccc3C2)nc2c1c(=O)n(C)c(=O)n2C	1.1	-0.98
C[C@H](NC(=O)c1ccc(Cl)cc1)C(=O)NCCc1ccc(S(N)(=O)=O)cc1	0.27	-1.1
CCOc1ccc(NC(=S)NC(C)c2cccs2)cc1 (centres undefined)	0.24	-0.32
COc1ccc(-n2nc(C(=O)NCC(=O)NCc3ccccc3OC)c3ccccc3c2=O)c(OC)c1	0.75	-0.26
Cc1ccc(C)c(C(=O)NC(C)c2ccc(-n3ccnc3)cc2)c1 (centres undefined)	0.2	-0.02
COc1cc(-c2cc(C(=O)NCc3ccc(S(N)(=O)=O)cc3)c3ccccc3n2)cc(OC)c1OC	0.49	-1.4
Cc1nn(CCO)c(C)c1Oc1ccccc1O	0.11	2.6
Nc1cccc(CCc2nc3cc4ccccc4cc3[nH]2)c1	1.4	-0.36
CCc1nnc(SCC(=O)Nc2nccs2)n1CC	1.4	1.9
CC(=O)Cc1nsc(Nc2ccc(F)cc2)n1	1.3	1.6
CC(=O)Nc1cc2c(nc1C)nc(C)n2Cc1ccc(Br)cc1	0.87	0.56
CC(C)(C)c1nnc(NC(=O)C2CCN(c3ncccn3)CC2)s1	0.62	2.1
CCc1sc(NC(=O)COC)nc1-c1ccccc1	0.09	0
COc1ccc(NC(=S)N2CCN(CCN=CC3=C(O)CC(c4ccccc4)CC3=O)CC2)cc1 (centres undefined)	0.01	0.97
Cc1cc(C)n(CCCC(=O)O)n1	0.62	-0.4
COc1cc(C(=O)NCCNC(=O)c2cnccn2)cc(OC)c1OC	1.1	0.98
Cc1ccc(OCC(=O)Nc2sc3c(c2C#N)CCC3)cc1	0.6	0.88
O=C(Nc1nccs1)c1ccccc1[N+](=O)[O-]	1.9	0.04
